NPYLR7 agonist = mosquito NPYLR7 agonism. activation, % at 10 µM. AID 1259423. 0.15% of 270,000 active. HEK293T NPYLR7/Galpha15, GCaMP6s calcium fluorescence; in the data active = activation above about 40%;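 note: 0% = vehicle and 100% = reference agonist at the receptor; some compounds past the cut are filed as inactive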
NPYLR7 agonist max-min = recorded beside NPYLR7 agonist, whose call it bears; activation, %; measured here: Max-Min RFU normalised activation; some inactives read as strong as hits;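 span of the calcium signal over five minutes; 0% = vehicle and 100% = native peptide agonist; compound fluorescence can raise it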
* hit, by the source's call.

SMILES	NPYLR7 agonist	NPYLR7 agonist max-min
Cc1ccc2nc(Cl)c(CC3CC(c4ccccc4)=NN3C(=O)CCC(=O)O)cc2c1 (configuration not stated)	-2	-3
O=C(Cc1ccc(-c2ccccc2)cc1)NCC(c1ccsc1)N1CCOCC1 (configuration not stated)	7	1
CCOC(=O)C1(C/C=C/c2ccccc2)CCCN(C(=O)c2cc(C)[nH]n2)C1 (configuration not stated)	-11	-13
CC(C(=O)OC1C(=O)N(c2ccccc2)CC1(C)C)N1C(=O)c2ccccc2C1=O (configuration not stated)	-1	4
CCOC(=O)N1CCN(Cc2ccc3c(c2)CN(C(=O)c2ccoc2)CCO3)CC1	0	-3
CCCC(NC(=O)c1cccc(N)c1)c1cccs1 (configuration not stated)	3	2
CC(C)CN(Cc1nccn1Cc1ccc(F)cc1)C(=O)c1ccc(F)cc1	4	6
CC(CNC(=O)c1ccc(=O)[nH]c1)N(C)c1ccccc1 (configuration not stated)	0	-2
CN(C)CCCOc1ccc(-c2cc3nc(NCc4cccnc4)n(C)c(=O)c3s2)cn1	8	2
OC(C#Cc1ccccc1)C#CC(O)(c1ccccc1)c1ccccc1 (configuration not stated)	1	-1
CCOc1ccc(C(=O)NCc2nnnn2-c2ccccc2)cc1	4	1
O=C(CSc1ncnc2sc3c(c12)CCC3)Nc1ccc(Br)cc1	-7	-12
CCCc1nc(C(C)(C)NC(=O)c2scnc2Cl)no1	6	5
O=C(c1cccc(S(=O)(=O)NC2CCCC2)c1)N1CCCc2ccccc21	1	-2
COc1ccc(-n2nnc(C(=O)OCc3ccccc3)c2C)cc1	5	-5
CCn1nc(C)c(Br)c1C(=O)N1CCc2c([nH]c3ccc(OC)cc23)C1COCc1ccccc1 (configuration not stated)	10	1
COC(=O)c1ccc(CN(C)C(=O)Cc2ccc(NC(C)=O)cc2)cc1	6	4
COc1ccc(Cl)cc1NC(=O)C1=C(C)NC(=O)NC1c1cccs1 (configuration not stated)	7	5
CN(Cc1ccccc1CN1CCCC1)C(=O)c1c[nH]c(=O)[nH]1	16	10
O=C(Nc1nnc(SCc2ccccc2Cl)s1)C1CCC1	38	33
Cc1cccc(-n2ncc3c(=O)n(Cc4cccc([N+](=O)[O-])c4)cnc32)c1C	-5	-6
Nc1ncnc(NN2CCOCC2)c1[N+](=O)[O-]	-4	-5
CCN1CCN(C(=O)c2cn(Cc3ccccc3Cl)nn2)[C@@H](C)C1=O	4	1
CSc1ncccc1C(=O)N1CCC(C(Cc2ccccc2)N(C)C(=O)c2ccoc2C)CC1 (configuration not stated)	10	1
CCOC(=O)c1cc(C(C)(C)C)n(C2CCN(C(=O)c3ccc4snnc4c3)CC2)n1	25	20

Ordered by heavy-atom count (rising): 16 of the compounds above.
SMILES	NPYLR7 agonist	NPYLR7 agonist max-min
Nc1ncnc(NN2CCOCC2)c1[N+](=O)[O-]	-4	-5
CCCC(NC(=O)c1cccc(N)c1)c1cccs1 (configuration not stated)	3	2
CCCc1nc(C(C)(C)NC(=O)c2scnc2Cl)no1	6	5
CC(CNC(=O)c1ccc(=O)[nH]c1)N(C)c1ccccc1 (configuration not stated)	0	-2
CN(Cc1ccccc1CN1CCCC1)C(=O)c1c[nH]c(=O)[nH]1	16	10
COc1ccc(-n2nnc(C(=O)OCc3ccccc3)c2C)cc1	5	-5
CCN1CCN(C(=O)c2cn(Cc3ccccc3Cl)nn2)[C@@H](C)C1=O	4	1
OC(C#Cc1ccccc1)C#CC(O)(c1ccccc1)c1ccccc1 (configuration not stated)	1	-1
O=C(c1cccc(S(=O)(=O)NC2CCCC2)c1)N1CCCc2ccccc21	1	-2
CCOC(=O)C1(C/C=C/c2ccccc2)CCCN(C(=O)c2cc(C)[nH]n2)C1 (configuration not stated)	-11	-13
O=C(Cc1ccc(-c2ccccc2)cc1)NCC(c1ccsc1)N1CCOCC1 (configuration not stated)	7	1
CCOC(=O)N1CCN(Cc2ccc3c(c2)CN(C(=O)c2ccoc2)CCO3)CC1	0	-3
Cc1ccc2nc(Cl)c(CC3CC(c4ccccc4)=NN3C(=O)CCC(=O)O)cc2c1 (configuration not stated)	-2	-3
CN(C)CCCOc1ccc(-c2cc3nc(NCc4cccnc4)n(C)c(=O)c3s2)cn1	8	2
CSc1ncccc1C(=O)N1CCC(C(Cc2ccccc2)N(C)C(=O)c2ccoc2C)CC1 (configuration not stated)	10	1
CCn1nc(C)c(Br)c1C(=O)N1CCc2c([nH]c3ccc(OC)cc23)C1COCc1ccccc1 (configuration not stated)	10	1

Complete entries from above.
CC(C)CN(Cc1nccn1Cc1ccc(F)cc1)C(=O)c1ccc(F)cc1 reads NPYLR7 agonist: 4; NPYLR7 agonist max-min: 6
Nc1ncnc(NN2CCOCC2)c1[N+](=O)[O-] reads NPYLR7 agonist: -4; NPYLR7 agonist max-min: -5

Next part
SMILES	NPYLR7 agonist	NPYLR7 agonist max-min
Cc1ccc(-c2cc(C(=O)N3CCc4ccccc4C3)n(-c3ccccc3)n2)cc1C	21	32
CCN1CCCC1CNC(=O)CCC1CCN(C2CCSCC2)CC1 (configuration not stated)	12	8
CC[C@@H]1C(=O)N(C)c2cnc(Nc3ccc(C(=O)NC4CCN(C)CC4)cc3OC)nc2N1C1CCCC1	-3	-13
Cn1nnc2c(NC3CC3)nc(Cc3ccc(Cl)cc3Cl)nc21	5	1
COc1ccc(-c2nnc3n2N(C(C)=O)C(c2ccccc2)=C(C(C)=O)S3)cc1	-1	-3
O=C(CCN1C(=O)c2ccccc2C1=O)N1CCOCCOCCOCCOCCOCC1	-6	-7
Cc1ccc[n+](CC(=O)c2ccc3c(c2)Cc2ccccc2-3)c1C	-3	-10
O=C(NC1CCCN(c2ccc(C(F)(F)F)cn2)C1)C1CCN(Cc2ccco2)CC1 (configuration not stated)	5	1
COc1cc(C=C2C(=O)NC(=S)NC2=O)ccc1OCc1ccc(C(=O)O)cc1	-5	-11
O=c1c2cc(Cl)ccc2nc2n1CCC2	2	8
O=C(C1CCN(S(=O)(=O)c2cnc[nH]2)CC1)N1CCN(C2CCCCC2)CC1	1	2
Cc1ccc(CN(Cc2ccc(F)cc2)CC(C)O)c(C)c1 (configuration not stated)	-1	9
COc1ccc(-c2cc(C(=O)N/N=C\c3ccc(Br)cc3)[nH]n2)cc1	3	-2
O=C(CCC(=O)Nc1ccc(Cl)cc1Cl)N/N=C\c1cccs1	2	-1
Cc1cccc(NS(=O)(=O)c2ccc(C(=O)O)c(Cl)c2)c1Cl	-4	21
CCCS(=O)(=O)N1CCCC(CCC(=O)N(C)CCc2ccccn2)C1 (configuration not stated)	22	6
CCCCc1ccc(C(=O)N(Cc2cccc(OS(=O)(=O)c3ccc(F)cc3)c2)Cc2ccco2)cc1	-4	3
CN(C)C(CNc1nc(C(F)(F)F)cs1)c1cccs1 (configuration not stated)	7	4
CCCCCCc1ccc(C(=O)Nc2ccc(N(C)C)c(C(=O)N3CCC(C)CC3)c2)cc1	-7	0
Cc1ccc(-n2nc(-c3ccc(C)c(C)c3)cc2C(=O)Nc2ccc(C)c(C)c2)c(C)c1	18	18
COc1cc(OC)cc(N2CCN(Cc3ccc(F)cc3F)C(C)C2=O)c1 (configuration not stated)	6	13
CO/N=C(/C(=O)N[C@H](C)C(C)(C)C)c1csc(NC=O)n1	-2	-8
CCCNC(=O)COc1c(Cl)cc(Cl)c2ccc(C)nc12	-1	-1
COc1ccc(C(=O)CCC(=O)N2CCCC3(CC2)CN(C)C(=O)O3)cc1 (configuration not stated)	8	6
O=C1C2CCCN2C(c2ccc(Cl)c(Cl)c2)N1c1nccs1 (configuration not stated)	7	2

Later entries.
SMILES	NPYLR7 agonist	NPYLR7 agonist max-min
CCc1ccc(-c2cc3c(SCC(=O)Nc4cc(F)ccc4F)nccn3n2)cc1	-2	-7
O=C(CCc1c[nH]c2ccccc12)N1CCc2c(cc(-c3cccc(Cl)c3)c(=O)n2CC2CC2)C1	8	-3
COc1cc(CNC2(CCO)CCC2)cc2c1OCCO2	9	5
COC(=O)C1=C(C)N(C)C(=O)NC1c1cccc([N+](=O)[O-])c1 (configuration not stated)	2	0
c1ccc(-c2ncn(Cc3cn[nH]c3-c3ccccc3)c2-c2cnc[nH]2)cc1	2	0
Cc1cc(CNC(=O)CNC(=O)OC(C)(C)C)ccc1N(C)C	13	9
CCCCc1ccc(S(=O)(=O)N2CCC(c3nc(-c4ccc5c(c4)OCO5)no3)CC2)cc1	17	15
CCOc1ccc(N(C)S(=O)(=O)c2ccc(C)c(C(=O)NC(C)C3CC3)c2)cc1 (configuration not stated)	6	1
COc1cc(C(=O)NS(=O)(=O)c2ccc(Cl)cc2)ccc1OC(C)C	0	0
O=C(CSc1nnc(CNC(=O)c2cccs2)n1-c1ccccc1)Nc1nc2ccccc2s1	-7	-6
Cc1ccc(C2c3ccccc3CCN2C(=O)c2cc(C)oc2C)cc1 (configuration not stated)	-3	7
CC(C)[C@H](NC(=O)c1cccc2nccnc12)C(N)=O	-6	-13
Cc1cc(C)nc(C(C#N)C(=O)CCc2cscn2)n1 (configuration not stated)	14	11
CC1CC1CN(C(=O)Nc1ccc(S(C)(=O)=O)cc1)C(C)C (configuration not stated)	0	1
Cc1cccc(C(=O)N2CCC(C3CCN(Cc4cccc(F)c4F)CC3)C2)n1 (configuration not stated)	5	4
CC(C)C(O)CN(CCN1CCOCC1)Cc1cccn1Cc1ccccc1 (configuration not stated)	-2	8
CC(=O)Cn1c(=O)c2c(nc3n(-c4ccc(C(F)(F)F)cc4)c(C)c(C)n23)n(C)c1=O	-2	27
Cc1ccccc1N1CCN(c2cc(Cl)nc(SCC(=O)NCCC(c3ccccc3)c3ccccc3)n2)CC1	21	26
Cc1sc2nc(-c3cccs3)nc(Oc3cccc[n+]3[O-])c2c1C	-2	35
O=C(NCCNC(=O)[C@H]1CCCN1C(=O)c1cccc(Br)c1)c1ccccc1	-1	6
COc1cc(NC(=O)N(Cc2ccc(OS(=O)(=O)c3cccc(C(F)(F)F)c3)cc2)Cc2ccco2)cc(OC)c1	2	14
Cc1c(CN2CCC3(CC2)C(=O)N(CCCc2cccnc2)C(=O)N3CC(C)C)cnn1C	14	5
Cc1ccc(COC(=O)c2nnn(-c3ccccc3)c2C)cc1	-20	-25
CC(C)(C)c1cc(C(=O)Oc2cccc3cccnc23)cc(C(C)(C)C)c1	8	7
CC(=O)c1ccc(S(=O)(=O)NCc2ccccn2)cc1	12	11

Additional structures:
SMILES	NPYLR7 agonist	NPYLR7 agonist max-min
CCN(CC)CCCC(C)NC(=O)c1c(C)noc1-c1ccc(C(C)(C)C)cc1 (configuration not stated)	6	10
Cc1cc(-c2csc(CC(N)=O)n2)c(C)n1CCC1=CCCCC1	10	8
Cn1cc(S(=O)(=O)Nc2ccnn2-c2cccc(Cl)c2)cn1	9	8
Ic1ccccc1-c1nc(-c2cccnc2)no1	-1	0
COCCCNCc1c(-c2ccccc2)noc1N1CCCCC1C (configuration not stated)	16	16
Cc1ccccc1CN1CCC(CNS(=O)(=O)NCc2ccccc2)C1 (configuration not stated)	7	5
COC(=O)N1CCCN(C(=O)Nc2ccc(F)cc2Cl)CC1	9	2
COc1cc(-c2nn(CN(C)Cc3ccccc3)c(=S)o2)cc(OC)c1OC	9	8
CCN(C(=O)CSc1ccc(NC(C)=O)cc1)c1ccc(F)cc1	-1	1
COCCN1CCN(C(C)C(=O)N2CCCC2)CC1 (configuration not stated)	5	3
O=C(NC1CC1)c1ccccc1CCc1ccccc1	-2	-10
CCC(=O)N1CCSC1c1cccc(Oc2ccccc2)c1 (configuration not stated)	6	10
O=C(NCC1CCCO1)C1CCN(C2CCN(C3Cc4ccccc4C3)CC2)CC1 (configuration not stated)	13	6
CCNC(=O)NC(=O)COC(=O)CN1C(=O)NC2(CCCC2)C1=O	-4	-8
O=C(c1cccc(C(F)(F)F)c1)N1CCSC1c1cccc(Oc2ccccc2)c1 (configuration not stated)	-9	1
O=C(NC1CCCCC1)c1csc(CSc2nnc(-c3ccncc3)n2-c2ccccc2Cl)n1	-1	6
CCCNC(=O)C1(C)CCN1C(=O)Cc1ccc(C(C)C)cc1 (configuration not stated)	0	-1
COc1cccc(-c2nn(Cc3cccc(C)c3)c(=O)c3nc(C)sc23)c1	17	15
COc1ccc2oc(=O)n(C3CCN(C(=O)COCc4ccccc4)CC3)c2c1	-6	5
CC(NC(=S)NNC(=O)Cn1ncc2ccccc2c1=O)c1ccccc1 (configuration not stated)	-7	5
Cc1ccc(C)c(NC(=O)N2CCCC(C(=O)c3cccc(Cl)c3)C2)c1 (configuration not stated)	-6	-9
C=Cc1cccc(CN2CCN(C)C3(CCN(C)CC3)C2)c1	3	-4
CCCn1nc(C(=O)Nc2ccccc2-n2cccn2)ccc1=O	10	7
CCCC(=O)Nc1cccc(CN2C(=O)C(C)NC2=S)c1 (configuration not stated)	6	2
N#CCc1cccc(C(=O)NCCc2nc(-c3ccccn3)cs2)c1	-4	-3

The results go on.
SMILES	NPYLR7 agonist	NPYLR7 agonist max-min
c1ccc(CCCN2CCCCC2c2ncc[nH]2)cc1 (configuration not stated)	-4	-3
COCc1nc(NCc2cccc(CN3CCCC3)c2)c2cnn(C)c2n1	-7	-9
Cc1cccc(NC(=S)NNC(=O)CCn2nc(C)c(Br)c2C)c1	-3	2
CC(C)c1nc(CCCN(C)C)n(-c2cccc(Cl)c2)n1	-7	-10
O=c1onc2cnc3ccccc3n12	4	3
CCOC(=O)C1CCCN(C(=O)c2cc(-c3ccc(OC)cc3)n(-c3ccccc3Cl)c2C)C1 (configuration not stated)	5	12
Cc1n[nH]c(C)c1S(=O)(=O)Nc1ccc2c(c1)OCCO2	-3	-4
CC(C)c1noc(CN(C)C(=O)c2cc(COc3ccccc3)[nH]n2)n1	0	-3
Cc1oc(-c2ccccc2)nc1CON=C1CCC2(CC1)OCCO2	2	16
CCCC(C)NC(=O)c1cc(C)nc2ccccc12 (configuration not stated)	-7	-10
CCN(/C=C1/CCCCC1=O)C1CC2CCC1C2 (configuration not stated)	2	-7
Cc1noc(-c2cccc(C(F)(F)F)c2)c1C(=O)NC1CCCc2ccccc21 (configuration not stated)	28	13
Cn1ccnc1CN(C(=O)C1CCN(Cc2ccccc2)CC1)C1CC1	4	6
CCc1ccc(NC(=O)C(C)S(=O)(=O)CC2CCOCC2)cc1 (configuration not stated)	-1	0
CSc1nnc(C)c(=O)[nH]1	3	1

Compound activity deposited in PubChem BioAssay by Fisher Drug Discovery Resource Center.

The list is partial (hit frequency here may not be typical).
